Screens from PubChem.
eIF4H FP inh: inhibitors of RNA binding by human eIF4H. inhibition, % at 35 µM. 290,000 tested, 0.94% active. eIF4H fluorescence polarization binding assay. AID 2012. Q15056;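 active = 50% or more with normal probe brightness, or confirmed in later tests; inconclusive = above 50% with abnormal brightness, or retests that disagree; inactive = below 50% or failed in later tests; about a fifth of its hits are not listed in these tables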;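 note: calls also rest on retests at 20 µM and on dose response follow-up; 0% = protein and probe with vehicle and 100% = probe without protein; strong numbers were not always called active; many hits fall short of the cut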
PABP polyA inh: blocks human PABP binding to poly(A) RNA; P11940; fluorescence polarization; inhibition, % at 35 µM; 290,000 tested, 1% active; AID 2014;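 active = 50% or more with normal probe brightness, or confirmed in later tests; inconclusive = above 50% with abnormal brightness, or retests that disagree; inactive = below 50% or failed in later tests; about a fifth of its hits are not listed in these tables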;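 note: calls also rest on retests at 20 µM and on dose response follow-up; controls were probe without protein and protein plus probe with vehicle; some compounds called inactive have numbers as strong as hits; many hits fall short of the cut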
Target sequence (P11940 whole entry, looked up): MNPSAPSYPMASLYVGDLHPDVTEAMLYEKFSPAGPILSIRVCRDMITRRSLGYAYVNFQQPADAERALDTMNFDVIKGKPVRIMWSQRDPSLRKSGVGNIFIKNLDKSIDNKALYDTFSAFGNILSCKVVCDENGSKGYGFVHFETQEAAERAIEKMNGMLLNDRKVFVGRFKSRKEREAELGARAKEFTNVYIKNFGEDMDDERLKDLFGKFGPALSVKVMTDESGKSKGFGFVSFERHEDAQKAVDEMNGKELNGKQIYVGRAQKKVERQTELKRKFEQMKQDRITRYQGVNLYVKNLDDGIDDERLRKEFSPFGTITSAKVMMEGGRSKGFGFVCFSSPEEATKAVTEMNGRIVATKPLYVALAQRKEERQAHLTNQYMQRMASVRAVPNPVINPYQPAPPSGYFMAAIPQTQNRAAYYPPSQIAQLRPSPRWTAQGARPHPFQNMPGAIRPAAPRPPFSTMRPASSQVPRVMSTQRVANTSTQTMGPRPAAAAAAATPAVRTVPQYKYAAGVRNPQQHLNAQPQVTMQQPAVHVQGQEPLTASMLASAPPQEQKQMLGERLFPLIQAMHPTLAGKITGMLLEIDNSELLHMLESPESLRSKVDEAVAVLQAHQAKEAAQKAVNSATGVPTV
UUG fidelity: alters start codon recognition fidelity in yeast; S. cerevisiae UUG-firefly luciferase reporter, luminescence/redox ratio; activity score, % at 18.7 µM; 350,000 tested, 0.13% active; AID 602363;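 active = replicate mean at a twofold rise or more, about +100% in these data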;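 note: firefly luciferase made from a UUG start codon reports start codon fidelity; reporter light over untreated wells divided by growth signal over untreated wells; some hits fall short of that in this replicate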
CSC inhib: blocks cancer stem cells. inhibition, % at 7.5 µM. 300,000 tested, 1.1% active. cancer stem cell-like cells viability, luminescence;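 active = mean at 75% or more and at least half the replicates too; inconclusive = mean and replicates disagree; tested in HMLE shEcad cells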;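 note: 0% = median of negative and 100% = median of positive control wells; the first replicate is given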
Rce1 inh: inhibitors of yeast Ras-converting enzyme; yeast membranes, quenched prenylated peptide cleavage fluorescence; 290,000 tested, 0.27% active; calls only; Q03530;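 active = fall in fluorescence gain of 50% or more versus controls, with final raw signal at or below 3038400; inconclusive = same 50% fall but final raw signal above 3038400; inactive = fall in fluorescence gain under 50%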;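 note: plate controls were neutral control wells for no effect and wells lacking membranes for full effect; tested at 10 µM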
Target sequence (Q03530 whole entry, looked up): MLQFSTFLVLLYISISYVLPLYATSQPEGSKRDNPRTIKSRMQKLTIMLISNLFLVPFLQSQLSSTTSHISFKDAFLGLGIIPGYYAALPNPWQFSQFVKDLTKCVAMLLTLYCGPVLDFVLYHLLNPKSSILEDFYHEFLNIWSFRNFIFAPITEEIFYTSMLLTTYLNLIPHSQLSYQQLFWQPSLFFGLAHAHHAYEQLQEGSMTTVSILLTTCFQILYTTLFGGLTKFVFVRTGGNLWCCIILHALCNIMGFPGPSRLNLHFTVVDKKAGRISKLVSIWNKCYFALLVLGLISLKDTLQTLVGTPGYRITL
MT1-MMP act inh: inhibitors of human MT1-MMP activation; P50281; HT1080 RFP-PRO-GFP cells, GFP/RFP ratio fluorescence, overnight; percent of plate control window, DMSO zero; GFP/RFP ratio change, % at 20 µM; 360,000 tested, 0.061% active;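 active = GFP/RFP ratio change of at least 30% with cell ATP level not reduced by more than half and red fluorescence within 50% of control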; note: strong numbers were not always called active
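Assay system: HT1080 cells carrying an RFP-PRO-GFP reporter | Dosing: Single dose of 20 µM compound, 1% DMSO final | Incubation: Cells overnight before dosing, compound overnight, 37 °C, 5% CO2 | Evaluation: GFP/RFP fluorescence ratio | Control set: DMSO and RFP-L50D-GFP cell wells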
HIV Env fusion: inhibitors of HIV Env-mediated cell fusion; HeLa-JRFL Env/CEM21 cell fusion, luciferase; inhibition, % at 12.3 µM; 360,000 tested, 1.1% active; AID 651610;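 active = mean replicate inhibition score of at least 50 and every replicate individually at or above 50; inconclusive = only one of the two criteria met; inactive = mean below 50 and not all replicates reaching 50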;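 note: 0% = plate neutral controls and 100% = maraviroc near 300 nM; one replicate is shown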
eIF4H FP inh retest: second read-out of eIF4H FP inh, no call of its own (marks repeat the call); inhibition, %; compound at 20 µM; confirmation average;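 mean of two retest wells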
PABP polyA inh retest: recorded beside PABP polyA inh, whose call it bears; inhibition, %; compound at 20 µM; confirmation repeats;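 mean of two retest wells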
MT1-MMP act inh RFP: further read-out of MT1-MMP act inh, marked with its call; RFP signal change, %; measured here: RFP expression control read;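 0 = vehicle wells; hits needed this value within 50% of zero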
Numbers without * were called inactive; i = inactive; ? = inconclusive; nt = no result given; & = joins results of further samples.

SMILES	eIF4H FP inh	PABP polyA inh	UUG fidelity	CSC inhib	Rce1 inh	MT1-MMP act inh	MT1-MMP act inh RFP	HIV Env fusion	others
OC(c1ccccc1)c1nc(-c2ccc(Cl)cc2)cs1 (stereo not drawn)	nt	nt	-4	nt	nt	2	-7	-5
CCn1c(=O)c(-c2cc(=O)[nH][nH]2)c(O)c2ccccc21	5	9	-20	-1	i	7	5	11
O=C(O)CCC(=O)Nc1ccc(Cc2ccc(NC(=O)CCC(=O)O)cc2)cc1	0	6	-11	-7	i	4	5	-64
O=C(O)C1C2C=CC(O2)C1C(=O)NCCCn1ccnc1 (stereo not drawn)	4	8	nt	nt	i	nt	nt	nt
CC1CCN(C(=O)C(=O)Nc2sc3c(c2C(N)=O)CC(C)(C)OC3)CC1	3	-3	-14	-1	i	2	1	-6
CC1=Nc2ccccc2/C1=C\c1nc(-c2ccc(F)cc2)oc1O	?	?	-6	8	i	-2	4	nt
COc1ccc(NC(=O)CNC(=O)c2ccco2)cc1	-5	-4	-2	-4	i	5	0	-7
Cc1c(C(=O)N2CCOCC2)c(S(=O)(=O)Nc2cccc(F)c2)c(C)n1C	-6	-2	-15	-3	i	0	2	-8
CCn1nnc(NC(=O)c2ccc(C(C)(C)C)cc2)n1	8	4	-25	-10	i	5	-2	-100
Nc1nc(SCCO)[nH]c(=O)c1NC(=O)c1ccccc1F	0	-2	-7	nt	i	3	3	25
CC(NC(=O)COC(=O)Cn1cc(C(F)(F)F)ccc1=O)c1ccccc1 (stereo not drawn)	nt	nt	-29	-18	nt	1	8	17
Cc1cc(C)cc(N2Cc3ccccc3C2)c1	-2	10	-9	11	i	4	6	1

Grouped by structure: those above containing four or more nitrogen atoms.
SMILES	eIF4H FP inh	PABP polyA inh	UUG fidelity	CSC inhib	Rce1 inh	MT1-MMP act inh	MT1-MMP act inh RFP	HIV Env fusion	others
CCn1nnc(NC(=O)c2ccc(C(C)(C)C)cc2)n1	8	4	-25	-10	i	5	-2	-100
Nc1nc(SCCO)[nH]c(=O)c1NC(=O)c1ccccc1F	0	-2	-7	nt	i	3	3	25

More results follow:
SMILES	eIF4H FP inh	PABP polyA inh	UUG fidelity	CSC inhib	Rce1 inh	MT1-MMP act inh	MT1-MMP act inh RFP	HIV Env fusion	others
O=C(c1ccccc1F)N1CCN(Cc2ccccc2F)CC1	11	19	nt	-15	i	-5	-1	nt
COc1ccc(NC(=O)N(C)C[C@@H]2OCc3cn(nn3)CCCC(=O)N([C@H](C)CO)C[C@H]2C)cc1	nt	nt	-33&-3	nt	nt	1	3	26
CC1(C)CC(=O)C(C#N)=C(NCCCO)C1	6	11	-20	6	i	-1	5	nt
COc1ccc(CCn2cc(C#N)c(=O)[nH]c2=O)cc1OC	-5	-5	nt	-11	i	5	2	-7
O=C(/C=C/[C@H]1O[C@@H](n2cnc3c(NC(=O)c4ccccc4)ncnc32)[C@H](O)[C@@H]1O)NCC1CCCO1 (stereo partly drawn)	nt	nt	-11	nt	nt	-1	2	43
CCCCc1ncc(CN2CCC(n3nccc3NC(=O)C(OC)c3ccccc3)CC2)[nH]1 (stereo not drawn)	-14	1	-15	-11	i	-1	3	-4
O=C(CSc1nc(=O)n(Cc2ccccn2)c2c1CCC2)Nc1ccc(F)cc1F	nt	nt	-6	-18	i	-3	-4	22
N#CCCn1cc(C(=O)Nc2ccc(C(=O)O)cc2)c(-c2ccc([N+](=O)[O-])cc2)n1	3	12	nt	1	i	0	0	4
COc1cccc(/C=N/c2nc3ccccc3n2C)c1O	-12	8	-7	-12	i	-1	1	2
NC(=O)C1CCN(C(=O)COc2ccc3c4c(c(=O)oc3c2)CCCC4)CC1	8	4	1	-13	i	0	2	nt
NC(=O)NC(=O)Nc1ccccc1Cl	-3	-1	-11	-11	i	4	8	-212
COc1ccc(N(C)S(=O)(=O)c2ccc(Cl)c(C(=O)NCCc3ccc(Cl)cc3)c2)cc1	-8	-10	nt	8	i	5	-13	8

Brought forward from above: two entries, followed by the next part.
SMILES	eIF4H FP inh	PABP polyA inh	UUG fidelity	CSC inhib	Rce1 inh	MT1-MMP act inh	MT1-MMP act inh RFP	HIV Env fusion	others
NC(=O)NC(=O)Nc1ccccc1Cl	-3	-1	-11	-11	i	4	8	-212
COc1ccc(N(C)S(=O)(=O)c2ccc(Cl)c(C(=O)NCCc3ccc(Cl)cc3)c2)cc1	-8	-10	nt	8	i	5	-13	8
Cc1cc(F)ccc1S(=O)(=O)N1CCCCC1CCNC(=O)C(=O)NCc1ccccn1 (stereo not drawn)	nt	nt	nt	1	i	-2	-7	-8
O=C(CN1C(=O)c2cccc3cccc1c23)Nc1ccc(S(=O)(=O)N2CCOCC2)cc1	-7	2	-1	32	i	1	-1	nt
C#CCOCCOCCOCCNc1nc(N2CCN(C(=O)[C@H](CCCCN)n3cc(CN)nn3)CC2)nc(N2CCN(C(=O)[C@H](CCCCN)n3cc([C@@H](N)[C@H](C)CC)nn3)CC2)n1	nt	nt	18	-6	nt	0	2	-47
C=CCn1c(SCC(=O)NCc2ccc3c(c2)OCO3)nc2scc(-c3ccccc3)c2c1=O	-6	-3	2	nt	nt	-6	-3	119*
Cc1ccc(SC[C@H](c2ccccc2)N2CCN(CC(C)C)CCC2=O)cc1	-2	-6	-10	nt	i	-1	-3	-7
Cc1cc(/C=C(\C#N)C(=O)NCc2ccco2)c(C)n1-c1ccc(C(=O)O)cc1	60	36	nt	-12	i	-3	-2	-4	eIF4H FP inh retest=1;PABP polyA inh retest=18
CC(=O)N1C[C@H]2CON(C)[C@H]2C[C@H]1c1cccc(-c2ccccc2C)c1	nt	nt	-32	nt	nt	4	2	6
N#Cc1nc(-c2cccs2)oc1NCC1CCCO1 (stereo not drawn)	-2	4	3	nt	?	6	-1	nt
CC1(C(=O)NS(=O)(=O)C2CC2)CCN(C(=O)COCc2ccccc2)C1 (stereo not drawn)	nt	nt	-16	nt	nt	-3	4	3
CCC(c1ccccc1)c1noc(CCN(CC)CC)n1 (stereo not drawn)	nt	nt	2	nt	nt	-3	-2	13
COc1ccc(NC(=S)N(CCCN2CCOCC2)Cc2ccco2)cc1	3	-4	nt	nt	i	2	1	2
O=C(C[C@H]1C(=O)N(Cc2cccnc2)C[C@@H]1Cc1ccccc1)Nc1ccccc1	nt	nt	-29	nt	nt	4	4	-4
CCN(CC)S(=O)(=O)c1ccc2oc(C(=O)NCCN3CCOCC3)c(C)c2c1	4	7	3	-2	i	2	3	4
S=C(NCc1ccco1)Nc1ccc(Cl)c(Cl)c1	1	7	-21	11	i	-11	-18	nt
O=C(CC1C(=O)NCCN1Cc1ccccc1C(F)(F)F)NC1CCCCCC1 (stereo not drawn)	30	3	-19	0	i	-5	2	-2
NC(=O)Nc1ccc(C(=O)OCC(=O)NC2CCCc3ccccc32)cc1 (stereo not drawn)	nt	nt	-3	3	nt	-2	3	nt
COc1cccc(/C=C2\SC(N3CCCC(C)C3)=NC2=O)c1OC (stereo not drawn)	10	1	-5	-5	i	3	3	-41
Cc1ccc2c(Cl)cc(Cl)c(OCC(=O)Nc3cc(S(=O)(=O)N(C)C)ccc3C)c2n1	-4	-4	nt	0	i	-1	-17	8
COc1ccc(NC(=S)N(Cc2cccc(Br)c2)CC2CCC(C(=O)O)CC2)cc1 (stereo not drawn)	-1	2	-30	-4	i	-6	1	-17
CC1=C(C(=O)N(C(C)C)C(C)C)CC(CC(=O)NC2CCCC2)C(=O)N1Cc1ccccc1 (stereo not drawn)	nt	nt	16	nt	nt	-1	2	9
O=C(Cc1ccccc1)NCC(=O)N1CCc2ccccc2C1	-15	-8	-13	-6	i	0	3	-15
COc1ccc(-c2nc3ccccc3c(=O)n2NC(=S)N(C)C)cc1	4	8	-19	-5	i	0	4	-16
CCc1ccc(-c2ccc(C(=O)O)c(C)n2)cc1	-7	-12	nt	-11	i	-2	-4	-46
O=C(COc1ccc2c(c1)C(=O)CC1(CCCCC1)O2)NCc1ccccc1	-10	-5	-12	5	i	-1	0	20
CCOc1ccccc1N1CCN(C(=O)CNC(=O)c2sc3ccccc3c2Cl)CC1	-1	-7	-24	-15	i	-3	-3	-4
CCOC(=O)CCNC(=O)Nc1ccc2nc(C)n(Cc3ccccc3Cl)c(=O)c2c1	-24	-5	-12	5	i	6	0	nt
Cc1cccc(C(=O)NCCN2CCCC2)c1	-8	8	-20	-1	i	-3	3	16
OCCC1CN(Cc2ccc(F)cc2)CCN1CCCc1ccccc1 (stereo not drawn)	-7	-15	8	nt	i	1	3	13
O=C(O)C1CC=CCC1C(=O)NCCc1ccccc1 (stereo not drawn)	-6	-4	-1	-5	i	0	2	30
CCOC(=O)CSc1nnc(-c2ccco2)n1C	4	1	-18	-10	i	-4	-3	-8
CCc1nnc(NC(=O)CCC(=O)NC2CCCC2)s1	-3	-4	4	-10	i	0	3	-13
Cc1cc(C)c(C(=O)CSc2nc(C)cc(C)c2C(N)=O)c(C)c1	-3	1	nt	4	i	4	-1	-58
CN(C)c1ccc(C2C3=C(CCCC3=O)OC3=C2C(=O)CCC3)cc1	74	-1	-3	3	i	-4	3	nt	eIF4H FP inh retest=6;PABP polyA inh retest=-8
Cc1cc(C)c(C)c(S(=O)(=O)N2CCC(C(=O)N3CC(C)CC(C)C3)CC2)c1C (stereo not drawn)	nt	nt	0	16	i	-1	-11	2
Cc1ccc(N(Cc2ccccc2)C(=O)c2ccc(Cl)c(S(=O)(=O)N3CCOCC3)c2)cc1	nt	nt	nt	1	i	-4	-9	17
CC(=O)Nc1ccc(S(=O)(=O)N2CCN(c3cnn(C)c(=O)c3Cl)CC2)cc1	-3	-2	-21	4	i	-6	4	-51

Continued, overlapping the part above by 5 compounds.
SMILES	eIF4H FP inh	PABP polyA inh	UUG fidelity	CSC inhib	Rce1 inh	MT1-MMP act inh	MT1-MMP act inh RFP	HIV Env fusion	others
Cc1cc(C)c(C(=O)CSc2nc(C)cc(C)c2C(N)=O)c(C)c1	-3	1	nt	4	i	4	-1	-58
CN(C)c1ccc(C2C3=C(CCCC3=O)OC3=C2C(=O)CCC3)cc1	74	-1	-3	3	i	-4	3	nt	eIF4H FP inh retest=6;PABP polyA inh retest=-8
Cc1cc(C)c(C)c(S(=O)(=O)N2CCC(C(=O)N3CC(C)CC(C)C3)CC2)c1C (stereo not drawn)	nt	nt	0	16	i	-1	-11	2
Cc1ccc(N(Cc2ccccc2)C(=O)c2ccc(Cl)c(S(=O)(=O)N3CCOCC3)c2)cc1	nt	nt	nt	1	i	-4	-9	17
CC(=O)Nc1ccc(S(=O)(=O)N2CCN(c3cnn(C)c(=O)c3Cl)CC2)cc1	-3	-2	-21	4	i	-6	4	-51
O=c1cc(CN2CCN(c3ccccc3F)CC2)c2ccccc2o1	nt	nt	-7	nt	nt	-1	-4	13
O=C1N/C(=N\N=C\c2cccs2)SC1Cc1cccc(Cl)c1Cl (stereo not drawn)	-4	-4	-12	50	i	1	-12	-23
Cn1ncc(Cl)c1C(=O)N1CCc2ccccc21	5	28	-14	-21	i	0	3	25
COc1ccc(OC)c(CN2CCN(S(=O)(=O)c3ccc(NC(C)=O)cc3)CC2)c1	12	-4	nt	-8	i	2	5	-12
COC(=O)c1cc(S(=O)(=O)N(C)C2CCCCC2)oc1C	1	-4	-20	-8	i	0	0	12
CCOc1ccc(C(=O)NCC(=O)Nc2cc(C)ccn2)cc1OCC	nt	nt	-24	-4	nt	-3	-2	nt
O=C(CCc1c[nH]c2ccccc12)N1CCN(c2ccc(O)cc2)CC1	12	-7	nt	22	i	-6	-4	21

The list is partial; the hit share may differ from the screen's.
